PKD1 inh: inhibitors of human PKD1 kinase, biochemical, fluorescence polarization | Serine/threonine-protein kinase D1 (Homo sapiens), Q15139 | PKD1 kinase fluorescence polarization assay | inhibition, %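 (about 10 µM by stock and volumes)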 | 0.056% of 200,000 active;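 active = inhibition of 50% or more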;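 also: controls were vehicle for no effect and a reference inhibitor for full effect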
Target sequence (Q15139 whole entry, looked up): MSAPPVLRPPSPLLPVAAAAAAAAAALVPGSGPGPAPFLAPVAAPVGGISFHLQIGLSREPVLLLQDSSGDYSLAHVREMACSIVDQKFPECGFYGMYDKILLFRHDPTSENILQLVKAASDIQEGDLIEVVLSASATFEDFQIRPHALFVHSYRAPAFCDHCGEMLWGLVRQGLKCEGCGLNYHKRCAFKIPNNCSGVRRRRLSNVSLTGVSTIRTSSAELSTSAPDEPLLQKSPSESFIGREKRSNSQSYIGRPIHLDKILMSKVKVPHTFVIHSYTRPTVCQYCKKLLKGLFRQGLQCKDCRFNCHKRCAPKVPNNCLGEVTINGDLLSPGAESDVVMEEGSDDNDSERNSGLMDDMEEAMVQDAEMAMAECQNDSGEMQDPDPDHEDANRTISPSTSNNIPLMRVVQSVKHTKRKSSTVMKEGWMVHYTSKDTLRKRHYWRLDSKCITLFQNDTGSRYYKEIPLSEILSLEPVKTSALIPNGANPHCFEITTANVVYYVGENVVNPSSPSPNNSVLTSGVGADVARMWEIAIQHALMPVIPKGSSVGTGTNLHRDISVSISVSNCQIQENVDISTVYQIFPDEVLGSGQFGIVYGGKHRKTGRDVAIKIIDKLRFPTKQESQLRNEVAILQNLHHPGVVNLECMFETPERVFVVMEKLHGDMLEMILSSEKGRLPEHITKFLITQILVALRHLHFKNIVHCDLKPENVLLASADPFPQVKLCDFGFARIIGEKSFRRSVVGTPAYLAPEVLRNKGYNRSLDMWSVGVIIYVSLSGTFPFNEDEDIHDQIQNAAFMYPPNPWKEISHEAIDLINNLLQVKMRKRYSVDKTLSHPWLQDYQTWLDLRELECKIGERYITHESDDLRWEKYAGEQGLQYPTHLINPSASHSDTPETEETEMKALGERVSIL
Insulin prom inh: inhibitors of insulin promoter-driven GFP, primary screen, imaging, TRM-6 cells (human fetal islet line), eGFP reporter, cell count | reporter expression induced with tamoxifen | inhibition, % at 2 µM | 0.9% of 130,000 active;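 active = inhibition above the mean plus 3 SD, with well images judged a real hit on visual review, cut at about 60% in these data, passing the limit was not always enough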
RGS16-Gao HTS: modulators of RGS16 binding to Galphao, primary screen, biochemical, human proteins, multiplexed bead flow cytometry; binding response (% of control), % at 10 µM; bead-based flow cytometry RGS16-Galphao binding, fluorescence; actives lie on both sides; Regulator of G-protein signaling 16 (Homo sapiens) + Guanine nucleotide-binding protein …; 0.38% of 220,000 active;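 active = below 25% or above 175%, edge rows of some plates excepted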;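 also: Galphao activated by GDP with aluminum fluoride before binding; 100% = wells without compound and 0% = beads without RGS; some results beyond the cut were filed as inactive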
GALR2 ag: GALR2 receptor agonists, primary screen, cell-based. Galanin receptor type 2 (Homo sapiens), O43603. GALR2-expressing cells, agonist activation read-out. 0.48% of 140,000 active. activation, %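 (tested at 5 µM)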;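 active = above mean plus 3 SD of all compounds, about 5% in these data, not always enough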;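 also: 0% = vehicle buffer wells and 100% = reference agonist at full effect; tested in CHO reporter cells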
HSV replic up: enhancers of HSV replication in host cells, fold increase, host cell viability; HSV replication augmentation in cells; maximum fold increase; 0.005% of 220,000 active; AID 1956, 2009;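 active = peak rise of 1.5-fold or more in the series; tested in PC3 cells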;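 also: first round at 10 µM; read as green reporter fluorescence; hits show the peak of a series up to 25 µM; 1 = signal of infected wells without compound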
Insulin prom inh cell count: recorded beside Insulin prom inh, whose call it bears; normalized cell count, %; measured here: cell count, toxicity; reference of the scale not given here;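 cells exposed to compound for 48 h; stained nuclei by imaging scaled within each plate; lower means fewer cells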
HSV replic up primary fold: further read-out of HSV replic up, marked with its call; fold increase; compound at 10 µM; measured here: primary screen fold increase 10 uM; tested in PC3 cells;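 GFP signal in the first replicate; 1 = infected wells without compound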
The depositor's hits bear a star; i = inactive; · = no result given.

SMILES	PKD1 inh	Insulin prom inh	Insulin prom inh cell count	RGS16-Gao HTS	GALR2 ag	HSV replic up	HSV replic up primary fold
COc1ccccc1NC(=O)CCc1c(C)nc2c(-c3ccc(F)cc3)c(C)nn2c1C	·	·	·	91	·	i	1
CCOC(=O)c1c(-c2ccccc2)oc2cc(CN(C)C)c(O)c(CN(C)C)c12	-7	-100	77	·	-1.7	·	·
CCC1CCCCN1C(=O)CSc1nnc(-c2ccc3c(c2)OCCO3)o1 (stereo unspecified)	-3	-221	15	97	-2.4	i	0.83
O=C1N(c2cccc(Cl)c2)C(c2ccc(Cl)cc2)N2CCCN12 (stereo unspecified)	-1	12	161	102	-1.3	i	0.98
CCN(CC)S(=O)(=O)c1cc([N+](=O)[O-])ccc1NNC(=O)Nc1ccccc1	-2	11	66	98	-1.4	i	1
CCN(C(=O)COC(=O)/C=C/c1c(C)nn(-c2ccccc2)c1C)C1CCS(=O)(=O)C1 (stereo unspecified)	·	·	·	98	·	i	1.1
CCOC(=O)c1c(N)sc(C(=O)N2CCCC2)c1C	2	4	81	103	-1.9	i	0.86
COC(=O)c1ccccc1NC(=O)c1cc(-c2ccc(C)cc2)on1	4	6	124	104	-2.7	i	0.82
Cc1cc(C)c2c(=O)c(/C=C3\NC(=S)NC3=O)coc2c1	·	·	·	101	·	i	0.99
Cc1nn(C(C)C(=O)N2CCCCC2)c(=O)c2c1sc1ccccc12 (stereo unspecified)	-7	·	·	100	-2.1	·	·
S=c1[nH]nc(-c2ccco2)n1/N=C/C=C/c1ccco1	-11	-17	161	96	-0.7	i	1.1
O=C(NCCCO)/C(=C\c1ccco1)NC(=O)c1ccc(Br)o1	-2	·	·	91	-2.1	i	1.1
Cc1ccc(O)c(C(=O)c2cnc3c(c2)c(=O)n(C)c(=O)n3C)c1	-3	53	97	99	·	i	0.94
CCNC(=O)COC(=O)c1sccc1C	0	·	·	98	·	i	1.2
CCOC(=O)C1=C(C)NC(=O)NC1c1ccc(OCC(N)=O)cc1 (stereo unspecified)	-1	67	172	91	-0.6	i	1.1
CCc1ccc(N(C(=O)CCC(=O)Nc2cc(C)on2)C(C(=O)NC2CCCC2)c2ccco2)cc1 (stereo unspecified)	1	-494	26	99	-3.1	i	0.94
Cc1cccc(-n2nnnc2SC(C)C(=O)NCCC2=CCCCC2)c1 (stereo unspecified)	3	·	·	95	-3.2	i	1
O=C(Cn1c(=O)n(-c2ccc(F)cc2)c(=O)c2sccc21)NC1CCCCC1	0	7	123	101	·	i	0.85
COc1ccccc1NS(=O)(=O)c1ccc(NC(=O)c2ccncc2)cc1	1	·	·	102	·	i	1
O=C(c1nc2ccccn2c1CNCCCn1ncc2ccccc21)N1CCCC1	-9	·	·	98	·	i	0.99
O=C1N=C(N2CCOCC2)S/C1=C1\C(=O)N(Cc2ccccc2)c2ccccc21	-16	26	109	84	-1.8	i	0.88
CCN1CCN(C(=O)C2CCC(CNS(=O)(=O)c3ccccc3)CC2)CC1 (stereo unspecified)	-3	16	85	·	-2.2	i	0.84
Fc1cccc(NC(=S)NCc2cccnc2)c1	-6	·	·	98	-2.3	i	0.93
Cc1cccc(/C=N/n2c(-c3ccco3)n[nH]c2=S)c1	·	·	·	100	·	i	1.1
COc1cccc(C=Nc2cccc3c(=O)[nH][nH]c(=O)c23)c1O	0	-6	69	105	·	i	0.95
Cc1cccc(N2C(=O)/C(=C/c3cccnc3)SC2=S)c1	·	·	·	100	·	i	0.9
Cc1ccc(/C=C/C(=O)O)cc1S(=O)(=O)NCC1CCCO1 (stereo unspecified)	4	·	·	98	·	i	0.84
N#Cc1ccccc1COc1ccc(/C=C/C(=O)O)cc1	-5	·	·	100	·	i	0.99
COc1cc(N=C2C(=O)N3c4c(cccc42)C(C)=CC3(C)C)cc(OC)c1	0	21	136	99	-0.3	i	0.98
Cc1ccc(C(=O)Nc2nc3ccccc3c(=O)s2)cc1	-6	·	·	95	0.4	i	0.75
CCOC(=O)c1ccc(CNCc2ccccc2)cc1	-3	-5	55	101	-2.2	i	0.98
COc1cc(OC)cc(-c2nnc(SCc3c(F)cccc3Cl)o2)c1	4	0	39	100	-0.9	i	0.85
CN(CCOC(=O)c1ccc2c(c1)OCO2)C(C)(C)C	-2	·	·	99	·	i	1.1
COc1ccc(C2CC(C(F)(F)F)n3nc(C(=O)NCc4cn(C)nc4C)c(Cl)c3N2)cc1 (stereo unspecified)	7	-31	108	101	-1.6	i	1.1
CC(C)C(=O)Nc1ccc(N2CCN(C(=O)c3cccs3)CC2)cc1	1	·	·	100	-0.9	i	0.88
CCOC(=O)C1CCCN(C(=O)CSCc2ccccc2)C1 (stereo unspecified)	-7	41	130	104	-0.5	i	1
CS(=O)(=O)N(CC(=O)NCC1CCCO1)c1ccc(F)c(Cl)c1 (stereo unspecified)	-8	10	140	130	-1.7	i	0.95
O=C(CSc1nnc(-c2cccs2)n1-c1ccccc1)N1CCCC1	6	·	·	96	-0.7	i	0.92
CCOC(=O)CC(NC(=O)Cn1nnc(-c2ccccc2C)n1)c1ccc(OC)cc1 (stereo unspecified)	2	21	64	112	·	i	0.94
CC1(C)CC2CC(C)(CN2C(=O)CN2C(=O)c3ccccc3C2=O)C1 (stereo unspecified)	4	-425	71	97	-0.6	i	0.98
Cc1cc(NCc2ccccn2)n2ncc(-c3ccc(Cl)cc3)c2n1	·	·	·	98	·	i	0.74
COc1ccc(N(CCC#N)C(=O)/C(C#N)=C/c2cccs2)cc1	4	13	60	52	·	i	0.98
Cc1nc2c(C(=O)NCc3ccc4c(c3)OCO4)cnn2c(C)c1Cc1ccc(F)cc1Cl	-4	20	98	94	-0.5	i	0.9
CCOC(=O)c1[nH]c(C)c(C(=O)N2CCN(C(=O)OCC)CC2)c1CC	-11	9	113	98	-0.1	i	0.99
O=C(Cc1cccc2ccccc12)NNC(=O)Nc1ccc(Cl)cc1	·	·	·	103	·	i	0.87
Cc1ccc(N2C(=O)N(CC(=O)NC(c3ccccc3)c3ccccc3)C(=O)C2C)cc1 (stereo unspecified)	6	17	133	50	-2.9	i	0.92
CC(C)(Oc1ccc(Cl)cc1)C(=O)Nc1ccc2oc(-c3ccncc3)nc2c1	-4	21	117	107	-0.2	i	0.94
CCCN1CCC(=NNc2ccc(S(=O)(=O)N3CCOCC3)cc2[N+](=O)[O-])CC1	1	26	87	104	0.7	i	0.71
Cc1onc(NC(=O)c2ccc(Cl)cc2Cl)c1Br	-3	·	·	96	·	i	0.83
O=C(O)c1cccc(-n2c(-c3cnccn3)n[nH]c2=S)c1	-8	·	·	95	·	i	0.92
O=C(COC(=O)c1ccccc1Nc1cccc(C(F)(F)F)c1)NCc1ccco1	-4	-17	136	95	-3.3	i	1.1
COc1ccccc1C(=O)Nc1ccon1	6	17	156	105	-0.7	i	0.97
COc1ccc(N2CCN(C(=O)CCn3nnc4ccccc43)CC2)cc1	2	18	62	102	-1.8	i	0.93
CCCN1C(=O)C(O)(CC(=O)c2cccc(OC)c2)c2ccccc21 (stereo unspecified)	-4	7	110	-17	-2.4	i	0.91
O=C(CC(c1ccccc1)c1cc(Cl)ccc1O)N1CCOCC1 (stereo unspecified)	3	-42	196	127	0.5	i	0.97
O=C(Nc1ncc2c(n1)-c1ccccc1CC2)c1cccs1	1	·	·	96	·	i	0.97
O=C1OCC/C1=C\c1ccc2c(c1)OCO2	·	·	·	96	·	i	1.4
CC(=O)NC(CCS(C)(=O)=O)C(=O)Nc1ccccc1C (stereo unspecified)	0	62	57	101	-2.4	i	0.99
CCOC(=O)c1ccc2c(c1)[nH]c(=S)n2CC	-1	·	·	106	·	i	0.9
CCC1SC2=NC(C)=C(C(=O)OCCOC)C(c3ccc(C(=O)OC)cc3)N2C1=O (stereo unspecified)	-4	·	·	107	-0.1	i	0.96

Shown with two lines to a compound: part of the list above.
Values run as follows: PKD1 inh	Insulin prom inh	Insulin prom inh cell count	RGS16-Gao HTS	GALR2 ag	HSV replic up	HSV replic up primary fold
O=C(CC(c1ccccc1)c1cc(Cl)ccc1O)N1CCOCC1 (stereo unspecified)
  3	-42	196	127	0.5	i	0.97
O=C(Nc1ncc2c(n1)-c1ccccc1CC2)c1cccs1
  1	·	·	96	·	i	0.97
O=C1OCC/C1=C\c1ccc2c(c1)OCO2
  ·	·	·	96	·	i	1.4
CC(=O)NC(CCS(C)(=O)=O)C(=O)Nc1ccccc1C (stereo unspecified)
  0	62	57	101	-2.4	i	0.99
CCOC(=O)c1ccc2c(c1)[nH]c(=S)n2CC
  -1	·	·	106	·	i	0.9

Additional records follow:
SMILES	PKD1 inh	Insulin prom inh	Insulin prom inh cell count	RGS16-Gao HTS	GALR2 ag	HSV replic up	HSV replic up primary fold
Cc1ccccc1NC(=O)C(=O)NCc1ccccn1	2	-110	131	100	-3.2	i	1
Nn1c(SCC(=O)Nc2ccc3c(c2)OCO3)nnc1-c1ccccc1	-3	6	130	100	0.2	i	1.1
C[C@]12CS(=O)(=O)C[C@H]1SC(=S)N2c1ccccc1	·	·	·	98	·	i	0.98
Nc1c(C(=O)NCCN2CCOCC2)c2nc3ccccc3nc2n1-c1cccc(F)c1	9	·	·	100	0.1	i	0.88
Cc1ccc(C(=O)CSc2nnnn2-c2ccccc2)o1	-4	·	·	99	·	i	0.9
CCOC(=O)C(C)(C)N(Cc1cccc(C)c1)S(=O)(=O)c1cccc([N+](=O)[O-])c1	-8	·	·	73	-1.6	i	0.93
COc1ccc2c(c1OC)C(=O)OC2CC(=O)c1ccc(O)cc1 (stereo unspecified)	-7	-16	44	98	-1.2	·	·
O=C(CNc1cccc([N+](=O)[O-])c1)N/N=C/c1ccc(F)cc1	0	27	118	105	·	i	0.78
Cc1c(C(=O)O)c(C(=O)O)nc2ccc(N3CCOCC3)cc12	-4	·	·	96	·	i	0.89
CC(=O)c1ccc(OCC(C)C)c(CN2CCCCC2)c1	-11	·	·	103	-1.1	i	0.97
CC(=O)Nc1ccc(C(=O)Nc2ccc(S(=O)(=O)NCC3CCCO3)cc2)cc1 (stereo unspecified)	1	6	103	99	-2.1	i	0.84
Cc1nc2ccc(N=NC3=C(O)CC(C)(C)CC3=O)cc2s1	-10	17	92	98	-1.5	i	0.98
CCCCCCn1c(CN2CCCCC2)nc2c1c(=O)n(C)c(=O)n2C	-7	29	155	·	0.9	i	0.87
CCn1c(SCC(=O)N/N=C(/C)c2ccncc2)nc2ccccc21	·	·	·	98	·	i	1.1
COc1ccccc1N=C(C)C1=C(O)COC1=O	0	·	·	77	-0.9	i	0.93
CNc1nc(CC(C)=O)ns1	3	·	·	99	-0.5	i	0.91
CC(C)C(CCN1C(=O)c2ccccc2C1=O)c1ccco1 (stereo unspecified)	-3	17	51	100	-1.1	i	0.98
Cc1ccc(C)c(Cn2c(C)nc3c(sc(=S)n3-c3ccccc3)c2=O)c1	-6	-31	97	100	·	i	0.99
CS(=O)(=O)c1ccc2nc(NC(=O)CCN3C(=O)c4ccccc4C3=O)sc2c1	-3	·	·	103	·	i	0.88
O=[N+]([O-])c1ccccc1S(=O)(=O)N1CCN(CC2CC=CCC2)CC1 (stereo unspecified)	3	·	·	99	·	i	0.97
CCOC(=O)N1CCN(Cc2nc3c(c(=O)n(C)c(=O)n3C)n2Cc2ccccc2)CC1	9	·	·	107	-0.1	i	0.99
COC(=O)c1cccc(NC(=O)Cc2coc3cc(OC)ccc23)c1	-10	-23	53	97	-0.7	i	1
COc1ccccc1NCC(O)Cn1c2ccccc2c2ccccc21 (stereo unspecified)	-2	37	93	105	-1.8	i	0.85
C=CCN(CC=C)CCOc1ccc(OC(C)C)cc1	-9	-29	120	99	·	i	0.92
Cc1ccc(N2CCN(S(=O)(=O)N(C)C)CC2)cc1Cl	-3	-6	102	68	-4.3	i	0.94
CNS(=O)(=O)c1ccc(C)c(S(=O)(=O)NC)c1	-6	·	·	103	-0.3	i	0.95
Cc1ccc(-c2cc(C(=O)N/N=C/c3cccnc3)n[nH]2)o1	2	-8	84	96	-0.3	i	0.93
CC1CCCCC1NC(=O)CSc1nnc(CNC(=O)c2ccccc2)n1C (stereo unspecified)	-2	·	·	98	·	i	1.1

No enrichment for hits; about 1.2% have a hit in one of these screens.
